Source: PubChem BioAssay (National Center for Advancing Translational Sciences (NCATS))
Vaccinia mCherry = inhibitors of vaccinia virus infection (mCherry reporter signal); Vaccinia virus mCherry reporter infection, fluorescence; about a quarter of the inactives have no number; Potency, µM (top dose mostly 36.5 µM), for the others: top-dose activity change, negative = inhibition, usual class: inhibitors; actives 0.63% (n = 310,000); active = well fitted inhibition curve with a large enough effect; inconclusive = small, poorly fitted or top-dose-only effect; inactive = no such curve, though single readings can be large or run the other way; tested in A549 cells; further: nearly all actives have a fitted effect of over 35% in size; inactives centre near -10
VACV Venus inh = inhibitors of vaccinia virus (Venus reporter). actives 0.46% (n = 330,000). Potency, µM (series often up to 36.5 µM), without a hit: at the highest dose activity change, negative = inhibition, actives largely listed as inhibitors. Vaccinia virus Venus reporter expression, fluorescence; active means well fitted inhibition curve with a large enough effect; inconclusive means small, poorly fitted or top-dose-only effect; inactive means no such curve, though single readings can be large or run the other way; tested in A549 cells; further: nearly all actives have a fitted effect of over 30% in size; inactives centre near -10
Starred values were filed as active, the others as inactive; i = inactive; ? = inconclusive; / = no result given; & = joins results of further samples; [ ] = another dose, or the depositor's remark. On the % scale 0 is the no-effect control and ±100 the full control effect; potency means the concentration at half of the fitted maximal effect.

SMILES	Vaccinia mCherry	VACV Venus inh
CN1C(=O)C(=Cc2ccc(SC3CCCCC3)o2)C(=O)N(C)C1=O	i	22%
O=C(Nc1cc(F)ccc1F)c1ccc(-n2cncn2)c([N+](=O)[O-])c1	-15%	-13%
CC(=O)Nc1cc(-c2cccc(F)c2)cn2c(-c3ccc(F)c(Cl)c3)cnc12	27%	7%
c1ccc(-c2noc(CC3CCCCC3)n2)nc1	-9%	-16%
CCOC(=O)c1cnc2ccc(OC)cc2c1Nc1ccc(N2CCN(C)CC2)cc1	?	?
COc1ccc(NC(=O)CCSc2nc(-c3ccco3)cc(C(F)(F)F)n2)cc1	-9%	-5%
CCCCNC(=S)NNC(=O)c1csc2ccccc12	?	-7%
O=C(c1cccc([N+](=O)[O-])c1)N1CCN(c2ccc(Nc3ccccc3)nn2)CC1	-13%	-10%
CC(C)OC(=O)c1ccc(NC(=O)Cn2c(-c3nonc3N)nc3ccccc32)cc1	i	-20%
Cc1ccccc1C(=O)NC1CCN(CC(=O)NCc2cccs2)CC1	-28%	-8%
COCCN1C(=O)N[C@@H](c2ccco2)C(C(C)=O)=C1C	-11%	-9%
O=C(c1cnn(-c2ccccc2)c1)c1ccc2ccccc2c1O	-11%	-10%
C/C(Cc1ccccc1)=N\NC(=O)CNC(=O)c1ccc2c(c1)OCCO2	-15%	-9%
CC1(C)C(=O)OC(c2c(F)c(F)c(F)c(F)c2F)C2(CCCCC2)C1=O (stereo not given)	/	0%
Cc1ccc(OP(=O)(Nc2c(C)n(C)n(-c3ccccc3)c2=O)Oc2ccc(C)cc2)cc1	-13%	-14%
CN(Cc1cccnc1)C(=O)c1cc(S(=O)(=O)Nc2ccccc2F)ccc1Cl	-16%	-7%
Cn1cnc(S(=O)(=O)N2CCN(C(c3ccccc3)c3ccccc3)CC2)c1	i	-5%
COc1ccc(-n2nc(C(=O)Nc3ccccc3OC)c3c4ccccc4n(C)c3c2=O)cc1Cl	-6%	-8%
CNCC(O)C(O)C(O)C(O)CO (stereo not given)	1%	-6%
C=CCn1cnc2c(nnn2-c2ccc(Cl)cc2)c1=O	?	?
O=C(NCc1ccccc1)NC1(C(=O)N2CCOCC2)CCCCC1	-5%	2%
O=C(Cn1ncc(Cl)c(Cl)c1=O)c1ccc2c(c1)OCCO2	?	-26%
CC(=O)Nc1ccc(S(=O)(=O)N(C)c2ccc(OCCOc3cccc(C)c3)cc2)cc1	-16%	-4%
Cc1noc(C)c1S(=O)(=O)Nc1ccc(C(=O)NC2CCCCCC2)cc1	-12%	1%
CNC[C@@H]1Oc2cc(Br)ccc2S(=O)(=O)N([C@H](C)CO)C[C@@H]1C	-13%	-14%

Among those listed so far, these have a nitro group on carbon.
SMILES	Vaccinia mCherry	VACV Venus inh
O=C(Nc1cc(F)ccc1F)c1ccc(-n2cncn2)c([N+](=O)[O-])c1	-15%	-13%
O=C(c1cccc([N+](=O)[O-])c1)N1CCN(c2ccc(Nc3ccccc3)nn2)CC1	-13%	-10%

New compounds follow.
SMILES	Vaccinia mCherry	VACV Venus inh
COc1ccc(CSc2nc3ccncc3n2Cc2nc(-c3ccc(OC)c(OC)c3)oc2C)cc1	-16%	-6%
CC(C)(C)OC(=O)CN1c2cccc3cccc(c23)S1(=O)=O	-20%	-1%
COc1ccc(-n2c(SCC(=O)c3ccc[nH]3)nnc2-c2ccccc2)cc1	-9%	-18%
O=C(COc1ccccc1[N+](=O)[O-])Nc1ccc(-c2nc3ccccc3s2)cc1	-20%	-11%
CCc1ccccc1-n1c(SCC(=O)N2CCCC2)nnc1-c1ccccn1	i	-9%
COc1ccc2[nH]c(C(=O)O)c(CCNC(C)=O)c2c1	-2%	2%
CCOC(=O)C1=CCN(S(=O)(=O)c2ccccc2Cl)C1c1ccc(C)cc1 (stereo not given)	6%	-1%
COC(=O)[C@]12CCCCC=C1N(CCc1ccc(OC)c(OC)c1)C(=O)[C@H](CC(=O)NCC1CCCCC1)C2	-13%	-25%
Cc1cc(C)n(/N=C/c2cc(Cl)cc(Cl)c2O)c(=O)c1	i	-2%
Cc1ccc(C)c(N2N=C(C(=O)OCc3nnc(-c4cccs4)o3)CCC2=O)c1	i	-19%
COC(=O)c1ccc(CSc2nccn2C)cc1	-17%	-16%
CSc1nccc(N/N=C/c2ccccc2)n1	i	-12%
O=[N+]([O-])c1ccc(CSc2ncnc3ccccc23)cc1	-25%	-6%
CCCCN(C)CCCNC(=O)c1ccc2nc(N3CCCCC3)sc2c1	-19%	-11%
O=C(COC(=O)c1cccnc1Cl)Nc1cccc(S(=O)(=O)N2CCOCC2)c1	i	1%
CC(C)C[C@H]1COc2cc(N3CCN(C)CC3)ccc2S(=O)(=O)N1	5%	5%
O=C(COc1ccc2c3c(c(=O)oc2c1)CCC3)NC1CCCCC1	-14%	-5%
Cc1cccc(NC(=S)NCCc2ccc(S(N)(=O)=O)cc2)c1C	-2%	7%
CC(NS(C)(=O)=O)c1nnc2n1-c1ccc(Br)cc1C(c1ccccc1Cl)=NC2 (stereo not given)	-26%	-6%
O=C(C[C@@H]1C/C=C\CCCC(=O)OC[C@@H]2CCCN2C1=O)NCCO	-14%	-5%
CCN(c1ccccc1)S(=O)(=O)c1ccc(Cl)c(C(=O)O)c1	i	-7%
CC(=O)c1ccc(OCCCC(=O)Nc2cccc(-c3nn[nH]n3)c2)cc1	-2%	-7%
CC1Sc2ccc(S(=O)(=O)CCC(=O)Nc3ccccc3Cl)cc2NC1=O (stereo not given)	-21%[7.34 µM]	-9%[7.34 µM]
CCOC(=O)N1CCN(Cc2ccccc2Cl)CC1	-17%	-8%
CCOc1ccc(-n2c(C)c(C(=O)OC)c3cc(O)ccc32)cc1	?	2%

Looked up by structure from above (five):
SMILES	Vaccinia mCherry	VACV Venus inh
CCOC(=O)N1CCN(Cc2ccccc2Cl)CC1	-17%	-8%
COc1ccc(CSc2nc3ccncc3n2Cc2nc(-c3ccc(OC)c(OC)c3)oc2C)cc1	-16%	-6%
O=C(COc1ccc2c3c(c(=O)oc2c1)CCC3)NC1CCCCC1	-14%	-5%
Cc1cc(C)n(/N=C/c2cc(Cl)cc(Cl)c2O)c(=O)c1	i	-2%
CN(Cc1cccnc1)C(=O)c1cc(S(=O)(=O)Nc2ccccc2F)ccc1Cl	-16%	-7%

Part of the list above, set out differently:
canonical_smiles,Vaccinia mCherry,VACV Venus inh
Cc1cccc(NC(=S)NCCc2ccc(S(N)(=O)=O)cc2)c1C,-2%,7%
CC(NS(C)(=O)=O)c1nnc2n1-c1ccc(Br)cc1C(c1ccccc1Cl)=NC2 (stereo not given),-26%,-6%

Record cards (already shown). Values in the order: Vaccinia mCherry	VACV Venus inh
Record of O=C(Cn1ncc(Cl)c(Cl)c1=O)c1ccc2c(c1)OCCO2 = ?	-26%
Record of O=C(C[C@@H]1C/C=C\CCCC(=O)OC[C@@H]2CCCN2C1=O)NCCO = -14%	-5%
Record of CC(NS(C)(=O)=O)c1nnc2n1-c1ccc(Br)cc1C(c1ccccc1Cl)=NC2 (stereo not given) = -26%	-6%

Remaining list, next part
SMILES	Vaccinia mCherry	VACV Venus inh
COc1ccc(CN(C)C(=O)c2[nH]c(C)c(C(C)=O)c2C)cc1F	-7%	-12%
C1=CCC(CN2CCN(C3CCCCCC3)CC2)CC1 (stereo not given)	-9%	-4%
CCC(=O)Nc1cccc(-c2nnc(-c3cccc(NC(=O)CC)c3)o2)c1	i	-7%
COc1ccc(CCNC(=O)c2cc(S(=O)(=O)N3CCCC3)cn2C)cc1OC	36%[activator]	0%
c1ccc(OCCNc2ccn3nc(-c4ccco4)cc3n2)cc1	14%	-6%
O=C1CCCc2cc(S(=O)(=O)N3CCCC(C(=O)Nc4ccc(F)c(Cl)c4)C3)ccc2N1 (stereo not given)	-7%	0%
Cc1ccc(NC(=O)COC(=O)COc2ccc3ccc(=O)oc3c2)cc1[N+](=O)[O-]	-15%	-7%
CCNC(=O)NC1c2ccccc2CSc2ccccc21 (stereo not given)	i	-12%
CCOC(=O)c1ccccc1NC(=O)C=C(C)C	-19%	-16%
COc1ccc2c(C(=O)c3ccc(C)cc3)n(CCCC(N)=O)[n+]([O-])c2c1	-6%	-12%
CCc1cc(C(=O)N/N=C/c2c(C)[nH]c3ccccc23)cs1	?	-24%
COc1ccc(NC(=O)c2sc3nc4c(cc3c2N)CCCCCC4)c(OC)c1	-19%	-1%
Cc1ccc(CN(Cc2ccco2)C(=O)COc2ccc(Cl)cc2)o1	-4%	-12%
CC1CCN(c2ccc(-c3ccc(NC(=O)c4ccco4)cc3)nn2)CC1	-23%	-12%
CC1(C(=O)Nc2ccc3c(c2)OCO3)CCN1Cc1ccccc1OC(F)F (stereo not given)	?	-14%
CCN(CC)C(=O)C1CCCN(C(=O)Nc2ccc3nsnc3c2)C1 (stereo not given)	/	-18%
CCCCSCCCNC(=O)C1CCC(CNS(=O)(=O)c2ccccc2)CC1 (stereo not given)	-7%&-20%	-14%&-15%
CSCc1c(C(=O)N2CCCc3ccccc32)oc2ccccc12	i	-15%
CCOc1ccc(Nc2c(S(=O)(=O)c3ccccc3)cnc3ccccc23)cc1	-6%	-24%
Cc1cccc(NC(=O)c2cnc3sccn3c2=O)c1	-17%	-24%
CN(Cc1nc2ccccc2c(=O)[nH]1)C(=O)c1cc2c(s1)CCCCC2	i	3%
CCOC(=O)c1cc(=O)cc(C(=O)OCC)o1	-21%	-4%
CCCCCNC(=O)c1cccc(S(=O)(=O)N2CC3(C)CC2CC(C)(C)C3)c1 (stereo not given)	?	?
COc1ccc(-c2nc(CS(=O)CC(=O)NCCc3ccc(Cl)cc3)c(C)o2)cc1OC (stereo not given)	-6%	-6%
CCn1cc(Br)c(C(=O)Nc2nccs2)n1	-1%	0%

(more compounds)
SMILES	Vaccinia mCherry	VACV Venus inh
CC(=O)Oc1cccc(N2C(=O)c3ccc(C(=O)Nc4c[nH]c(=O)[nH]c4=O)cc3C2=O)c1	i	-6%
C=CCc1ccccc1OCCSc1nc(-c2ccccc2F)nc2cc(=O)[nH]n12	-15%	-6%
COc1ccc(NC(=O)CSc2c3c(nc4ccccc24)CCC3)c(OC)c1	?	-7%[7.34 µM]
COc1cccc(OC)c1OCCNCC1COc2ccccc2O1 (stereo not given)	-7%	-10%&-14%&-2%
Oc1ccccc1OCCOc1ccccc1OCCOc1ccccc1O	?	-22%
CCOCCCNC(=O)CCS(=O)(=O)Cc1ccc(C)cc1	-11%	-4%
Cc1cc(/C=C(\C#N)C(=O)Nc2ccc(Cl)cc2)c(C)n1-c1ccc(N2CCOCC2)c([N+](=O)[O-])c1	i	-13%
Cc1ccccc1CN1C[C@@H]2C[C@@H](c3cnc(N4CCOCC4)s3)N3CCC[C@@]23C1=O	i	-9%
CCCC(=O)c1ccc(N2CCN(S(=O)(=O)c3ccc(C)cc3)CC2)c(F)c1	i	-12%
COc1ccc2nc3oc(C(=O)NC4CCN(Cc5ccccc5)CC4)cc3cc2c1	-9%	-7%
CCC(C(=O)N1CCN(c2ccccc2)CC1)n1c(C)c2cnn(-c3ccccc3)c(=O)c2c1C (stereo not given)	-7%	1%
Cn1c(NCCc2ccncc2)nc2cc(-c3cccc(C(F)(F)F)c3)sc2c1=O	10%	-3%
Cc1cc(C)nc(-n2nc(C)cc2NC(=O)CNCc2ccccc2)n1	-12%	-17%
O=C(c1ccccc1F)N1CCN(c2ccc([N+](=O)[O-])c(N3CCOCC3)c2)CC1	-5%	-14%
CC(=O)c1cccc(NC(=O)COC(=O)CC2CC3CCC2C3)c1 (stereo not given)	i	-5%
CCOC(=O)CC(=O)NC(CC(=O)OC)c1ccc(Br)cc1 (stereo not given)	i	-5%
CCOc1ccc(CCNC(=O)COC(=O)Cc2ccc(F)cc2)cc1OCC	i	-16%
OCc1nc2ccccc2n1Cc1c(F)cccc1Cl	-2%	-10%
CCOc1ccc(NC(=O)c2cccc(NC3=NC4CS(=O)(=O)CC4S3)c2)cc1 (stereo not given)	i	-11%
Cc1cc(OCCCCN2C(=O)NC(C)(C)C2=O)ccc1[N+](=O)[O-]	-1%	-20%
COc1ccc(CCNC(=O)NCc2noc3ccccc23)c(OC)c1	3%	3%
COc1ccc2nc3ccccc3nc2c1NC(=O)c1ccccc1Cl	?	-6%
COc1ccc(CNC(=O)C2CCN(S(=O)(=O)c3ccc4nc5c(c(C(=O)O)c4c3)CCCC5)CC2)cc1	-9%&-13%	-11%&-6%
CC(=O)/C(=N\Nc1ccc(C)cc1)N1CCOCC1	-23%	-5%
Cc1cc(C(=O)COC(=O)c2ccncc2)c(C)n1Cc1ccco1	-1%	-11%

Later entries:
SMILES	Vaccinia mCherry	VACV Venus inh
COc1ccc([C@H]2CN(c3ccccc3)C(=O)[C@@H]2CC(=O)Nc2ccccc2)cc1	4%	-4%
CCC1(C)N([O-])C(C)=C(c2ccccc2)[N+]1=O (stereo not given)	/	-6%
CCN(CC)CCn1c(SCC(=O)NCCC2=CCCCC2)nc2c(sc3ccccc32)c1=O	i	-16%
CC1/C=C/C=C/C=C/C=C/C=C/C=C/C=C/C(OC2OC(C)C(O)C(N)C2O)CC2O[C@@](O)(CC(O)CC(O)C(O)CCC(O)CC(O)CC(=O)OC(C)[C@H](C)C1O)CC(O)C2C(=O)O (stereo not given in full)	-11%	18%
COc1cc(-c2cc(NC(C)=O)c3ncc(-c4cc(OC)c(OC)c(OC)c4)n3c2)cc(OC)c1OC	?	?
Cc1ccc(-n2cc(S(=O)(=O)c3ccc(C)cc3)[nH]c2=O)cc1	-29%	1%
